RE007 growth inh: less growth of the S. pombe RE007 Vpr strain | 360,000 compounds, 0.21% hits | AID 651644 | Potency, µM (doses to about 92.2 µM), without a hit: at the top dose activity change, negative = less growth | S. pombe RE007 Vpr strain, BacTiter-Glo ATP luminescence, 24 h; control for the full effect not named in the record; active = well fitted falling curve with a large enough effect; inconclusive = small, poorly fitted or top-dose-only effect; inactive = no such curve, though single readings can be large or run the other way;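 also: % is scaled to controls: 0 for no effect and ±100 for the full control effect; nearly all actives have a fitted effect of over 50% in size; the assay follows cell death caused by Vpr and the record does not say whether a fall means rescue or toxicity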
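Fission yeast RE007 carrying one integrated HIV-1 vpr copy, seeded at OD 0.01 in PMG+AL medium with 23 nL pinned compound. Grown 24 h at 30 degrees; viability read by BacTiter-Glo luminescence after 5 min.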
LASV entry inh: Lassa virus entry inhibition; Lassa virus pseudotype entry inhibition, cell reporter; control for the full effect not named in the record; Potency, µM (highest dose often 37.9 µM), for inactives: at the highest dose activity change, negative = inhibition, most hits filed as inhibitors; AID 540256; 300,000 compounds, 1.2% hits; active means well fitted inhibition curve with a large enough effect; inconclusive means small, poorly fitted or top-dose-only effect, or effect the other way; inactive means flat fitted curve, though single readings scatter; tested in HEK293 cells; also: % is scaled to controls: 0 for no effect and ±100 for the full control effect; nearly all actives have a fitted effect of over 50% in size; luciferase read-out
2A StopGo: lowers the luciferase signal of an FMDV 2A StopGo reporter. human cells with a luciferase reporter of 2A StopGo recoding; control for the full effect not named in the record. Potency, µM (titrated, usually from 57.9 µM), without a hit: at the highest dose signal change, negative = less light. 410,000 compounds, 1.2% hits; active = well fitted falling curve with a large enough effect; inconclusive = small, poorly fitted or top-dose-only effect; inactive = no such curve, though single readings can be large or run the other way; tested in HEK293T cells; also: % is scaled to controls: 0 for no effect and ±100 for the full control effect; nearly all actives have a fitted effect of over 45% in size; luciferase light after 4 h
SARS PLpro yeast: blocks SARS-CoV papain-like protease in a yeast assay. S. cerevisiae expressing SARS-CoV PLpro, growth rescue; control for the full effect not named in the record. Potency, µM (doses to about 32.9 µM), inactives show top-dose activity, positive = growth rescue. 330,000 compounds, 0.19% hits. AID 485353; active means well fitted rising curve with a large enough effect; inconclusive means small, poorly fitted or top-dose-only effect; inactive means no such curve, though single readings can be large or run the other way; also: 0% is about no effect; nearly all actives have a fitted effect of over 55% in size; growth read by luminescence after 48 h
Marburg entry inh: blocks Marburg virus binding to or entry into cells; AID 540276; 300,000 compounds, 1.8% hits; Potency, µM (series often up to 37.8 µM), inactives show at the highest dose activity change, negative = inhibition, usual class: inhibitors; Marburg virus pseudotyped entry inhibition, cell reporter; control for the full effect not named in the record; about a third of the inactives were read at about 46 µM; active = well fitted inhibition curve with a large enough effect; inconclusive = small, poorly fitted or top-dose-only effect, or effect the other way; inactive = flat fitted curve, though single readings scatter; tested in HEK293 cells; about a fifth of its hits are not listed in these tables; also: % is scaled to controls: 0 for no effect and ±100 for the full control effect; luciferase read-out
NS1 function inh: inhibitors of influenza NS1 protein function. S. cerevisiae slowed by influenza A NS1, growth recovery by OD600. 270,000 compounds, 0.4% hits. Potency, µM (doses to about 46.1 µM), for the others: top-dose activity, positive = more growth; active means well fitted rising curve with a large enough effect; inconclusive means small, poorly fitted or top-dose-only effect; inactive means no such curve, though single readings can be large or run the other way; also: nearly all actives have a fitted effect of over 50% in size
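A cell-based growth assay was used: compounds that relieve NS1-induced slow growth of budding yeast raise OD600. Assay medium was yeast nitrogen base with ammonium sulphate and -URA supplement, pH 6.0, with 2% galactose.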
Cruzain noTriton: inhibitors of Trypanosoma cruzi cruzain without detergent. purified cruzain, Z-FR-AMC fluorescence, no detergent. 200,000 compounds, 2.3% hits. Potency, µM, for the others: max response, negative = inhibition, actives largely listed as inhibitors. P25779. AID 1476;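 also: plate controls were enzyme without inhibitor for no effect and buffer without enzyme for full effect; nearly all actives have a fitted effect of over 40% in size; top concentration of the series not given in the record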
Target sequence (P25779 123-467 limits assumed): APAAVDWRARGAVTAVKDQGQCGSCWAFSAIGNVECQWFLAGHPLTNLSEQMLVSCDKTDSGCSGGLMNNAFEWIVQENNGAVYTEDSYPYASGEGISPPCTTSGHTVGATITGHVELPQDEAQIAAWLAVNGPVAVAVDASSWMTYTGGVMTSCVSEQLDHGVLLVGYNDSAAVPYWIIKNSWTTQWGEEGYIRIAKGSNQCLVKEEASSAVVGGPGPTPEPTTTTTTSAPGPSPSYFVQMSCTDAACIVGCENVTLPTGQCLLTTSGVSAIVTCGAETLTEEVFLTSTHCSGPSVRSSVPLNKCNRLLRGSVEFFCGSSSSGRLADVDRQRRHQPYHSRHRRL
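Purified cruzain at 1.5 nM, pre-incubated 15 min with compound at room temperature in 100 mM sodium acetate pH 5.5, 5 mM DTT, 0.00005% Triton X-100. Reaction started with 2 uM Z-FR-AMC; AMC fluorescence increase over 60 s gives rate.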
Cruzain Triton: cruzain (T. cruzi) inhibition with detergent | P25779 | purified cruzain, Z-FR-AMC fluorescence, 0.01% Triton | Potency, µM, inactives show max response, negative = inhibition, hits mostly inhibitors | 200,000 compounds, 0.43% hits;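 also: plate controls were neutral wells for no effect and buffer without enzyme for full effect; nearly all actives have a fitted effect of over 40% in size; top concentration of the series not given in the record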
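Z-FR-AMC hydrolysis (2 uM substrate) by cruzain (1.5 nM) monitored kinetically at ex 360/em 450 nm after 15 min room-temperature compound exposure; 0.01% Triton X-100, pH 5.5, 5 mM DTT.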
* marks the source's active call; other numbers are inactive results; ? = inconclusive; · = no result given; & = joins results of further samples; [ ] = another dose, or the depositor's remark. Unless noted, calls follow the shape of the dose curve; as a rule, active = well fitted curve in the direction sought with a large enough effect; inconclusive = small, poorly fitted or top-dose-only effect, or another doubt; inactive = no such curve, though single readings can be large; an effect the other way counts as inactive or inconclusive. Potency is read from the fitted curve at half-maximal effect.

SMILES | RE007 growth inh | LASV entry inh | 2A StopGo | SARS PLpro yeast | Marburg entry inh | NS1 function inh | Cruzain noTriton | Cruzain Triton
COC(=O)C1CCN(S(=O)(=O)Cc2ccccc2)CC1 | -1.2% | 13.7% | 1.1% | -4.1% | -21.6% | -4.0% | -10.6% | -3.5%
Cc1ccccc1NCCC(=O)Nc1ccc(Cl)cc1 | 2.9% | 12.5%[46.1 µM] | 22.6% | -12.0% | 7.6%[46.1 µM] | -21.2% | · | ·
CCN1CCN(C(=O)CS(=O)(=O)Cc2nc(-c3ccccc3C)oc2C)CC1 | 1.2% | 25.0%[46.1 µM] | -10.2% | 0.6% | 0.3%[46.1 µM] | 4.5% | · | ·
Cc1cccc(-n2nnc(C(=O)NCc3ccccc3Cl)c2N)c1 | 30.6% | -12.4% | 3.8% | -4.3% | ? | · | · | ·
COc1ccc(NC(=O)CCN2C(=O)C3C4CCC(C4)C3C2=O)cc1 (stereo not given) | 7.4% | -14.7% | 20.0% | 16.6% | -13.8% | ? | -23.1% | 0.0%
O=C(COC(=O)/C=C/c1ccc(Cl)cc1Cl)NCc1ccco1 | -9.5% | 2.4% | -11.7% | 1.8% | 8.3%[46.1 µM] | -5.9% | · | ·
COC(=O)C1=C(C)NC(C)=C(C(=O)OC)C1c1ccc(OC(=O)c2oc3ccccc3c2C)c(OC)c1 | 8.5% | -25.2% | -8.8% | 7.5% | -16.8% | 0.9% | -22.6% | -12.2%
CC(=O)Cc1nsc(NC(=O)c2ccc(COc3ccccc3C)o2)n1 | -8.3% | -15.8%[46.1 µM] | -20.4% | -3.9% | 7.0%[46.1 µM] | 0.0% | · | ·
COc1ccc(Cc2nc3ccccc3[nH]c2=O)cc1 | 4.3% | ? | 41.8%&-8.1%[activator] | -4.2% | -0.4%&0.2%[46.1 µM] | -9.0% | -0.1% | -4.1%
CCn1c(SCC(=O)N/N=C/c2ccc(O)c(OC)c2)nc2ccccc21 | -4.2% | -6.0% | 14.1% | 4.2% | -5.1% | 3.7% | -15.0% | -1.7%
N#C/C(=C/c1cc[nH]c1)C(N)=S | 1.3% | -20.4% | 3.2% | 2.5% | 5.4%[46.1 µM] | · | · | ·
O=C(CN(C(=O)c1csnn1)c1ccc(F)cc1)NCCc1ccccc1 | -25.1% | 1.7% | 8.3% | 2.1% | -1.9%[46.1 µM] | -4.7% | · | ·
COCCCNCCC(CCC(C)C)c1ccc2c(c1)OCO2 (stereo not given) | 0.4% | ? | 18.6% | -1.8% | ? | 0.2% | · | ·
C[N+]1(C)CCc2cc3c(cc2[C@H]1[C@@H]1OC(=O)c2c1ccc1c2OCO1)OCO3 | 14.6%&17.0% | ? | -22.8%&-21.9% | 10.2%&-1.6% | 15.2%&1.5%&-20.9%&-20.9% | -4.6%&0.6% | -3.9% | -1.7%
COc1ccc(-n2nc(C(=O)NCCCOC(C)C)c3c4ccccc4n(C)c3c2=O)cc1 | · | 19.3%[46.1 µM] | ? | · | -1.6%[46.1 µM] | · | 1.8% | -2.1%
O=C(CNCc1ccccn1)Nc1cc(C(F)(F)F)ccc1N1CCOCC1 | ? | -7.2%[46.1 µM] | -23.5% | -0.5% | -1.0%[46.1 µM] | -5.6% | · | ·
NC(Cc1ccc(Oc2ccc(O)cc2)cc1)C(=O)O (stereo not given) | · | -12.3% | · | 5.1% | -6.1% | 5.6% | -5.8% | 4.3%
COc1ccccc1C(=O)Nc1nnc(-c2ccc3c(c2)CCCC3)o1 | 11.3% | · | 55.2%[activator] | -29.3% | · | -34.4% | ? | -8.1%
CCNc1nc(N)nc(Oc2ccc(OCCOc3ccccc3)nn2)n1 | 1.2% | 19.9% | 21.4% | 2.2% | -12.0% | 1.2% | 8.3% | 3.6%
Cc1ccc(SCC(=O)Nc2ccc(O)c(-c3nc4cc(C)ccc4o3)c2)cc1 | · | 26.6%[46.1 µM] | 27.3% | · | ? | · | -20.1% | -2.6%
COc1ccccc1NC(=O)CN1CCN(CC(=O)Nc2ccc(OC)c(OC)c2)CC1 | 6.9% | · | 0.0% | -1.0% | · | 0.2% | · | ·
COc1ccc(/C=C2/CCC(CN3CCOCC3)C2=O)cc1 (stereo not given) | 7.94µM* | 12.6µM* | 17.8µM* | · | ? | · | · | ·
N#C/C(=C/c1ccccc1[N+](=O)[O-])C(=O)NCc1ccco1 | -1.0% | 0.5% | -21.9% | -17.1% | 17.4% | 11.3% | -0.3% | -5.1%
CCCn1c(N2CCN(CC(=O)c3c(C)n(C)c4ccc(OC)cc34)CC2)nc2c1c(=O)[nH]c(=O)n2C | -10.4% | ? | ? | -6.3% | ? | -11.1% | 17.5% | 0.3%
COc1ccc(NC(=O)Nc2cc(C)ccc2F)cc1OC | 8.8% | ? | 21.1% | -0.1% | -3.8%[46.1 µM] | 5.6% | · | ·

Copied from the list.
Value for `O=C(CNCc1ccccn1)Nc1cc(C(F)(F)F)ccc1N1CCOCC1` under SARS PLpro yeast: -0.5%
Value for `N#C/C(=C/c1ccccc1[N+](=O)[O-])C(=O)NCc1ccco1` under Cruzain noTriton: -0.3%
Value for `CCNc1nc(N)nc(Oc2ccc(OCCOc3ccccc3)nn2)n1` under NS1 function inh: 1.2%

Next part:
SMILES | RE007 growth inh | LASV entry inh | 2A StopGo | SARS PLpro yeast | Marburg entry inh | NS1 function inh | Cruzain noTriton | Cruzain Triton
COc1cc(/C=C2\SC(=S)N(CCC(=O)Nc3ccc(O)cc3)C2=O)cc(OC)c1OC | -9.8% | ? | ? | 1.8% | 5.2%[46.1 µM] | 2.6% | · | ·
CCN(CC)c1ccc(NC(=O)c2ccc3c(c2)OCO3)c(C)c1 | -10.7% | -21.8%[46.1 µM] | 14.2% | 8.1% | -22.9%[46.1 µM] | -7.1% | · | ·
CC(=O)Nc1ccc(S(=O)(=O)NCCC(=O)Nc2ncccc2C)cc1 | -10.9% | ? | -5.7% | 4.3% | ? | · | · | ·
Cc1ccc(S(=O)(=O)N2CCN(C(=O)c3ccccc3)CC2)cc1 | 1.2%[3.69 µM] | 20.1% | -23.8% | 15.9% | -3.1% | -4.0% | -2.5% | 0.4%
O=C(NNc1cccc(Cl)n1)c1ccc(Cl)cc1Cl | -17.5%[3.69 µM] | 18.7% | 44.5%[activator] | -1.7% | ? | -2.9% | -1.6% | -1.7%
CCOC(=O)c1ccc(NS(=O)(=O)c2cc(C)ccc2OC)cc1 | 1.9% | 5.4% | 29.9% | · | -11.2% | -34.8% | -5.8% | -7.7%
CCOC(=O)CSc1nc2ccc(N3CCOCC3)cc2c(=O)n1Cc1ccccc1 | 10.3%[3.69 µM] | ? | 21.6% | 5.4% | 2.6% | 1µM* | ? | -8.4%
Cc1ccccc1-n1nc2c(c1NC(=O)c1c(-c3ccccc3Cl)noc1C)CS(=O)(=O)C2 | 2.9% | -26.3% | -6.8% | -1.5% | -6.7% | -37.1% | 5.9% | -3.7%
CC1CCC(N2CC(=O)N(CCC3=CCCCC3)C(c3ccc(F)cc3)C2=O)CC1 (stereo not given) | · | 18.9%[46.1 µM] | -21.5% | · | · | · | 0.0% | -0.4%
COC(=O)C1=C(C)NC(=O)CC1c1ccccc1OC (stereo not given) | 4.1% | 0.0%[46.1 µM] | -16.4% | -1.1% | -2.5%[46.1 µM] | 4.2% | · | ·
Cc1ccc(NC(=O)COc2nc(C)cs2)cc1 | -2.3% | -1.2% | 11.4% | 2.5% | 9.8% | -3.3% | -9.2% | 4.9%
O=C(COC(=O)CSc1ccccc1)NCCNC(=O)COC(=O)CSc1ccccc1 | 0.8% | -14.0% | -11.6% | -2.2% | 2.1% | · | · | ·
CCC(CC)N1CCN(Cc2nc3ccccc3c(=O)n2-c2ccc(F)cc2)CC1 | -5.5% | · | 4.2% | 2.9% | · | -18.0% | · | ·
O=S(=O)(NC1CC1)c1ccc2c3c(cccc13)CC2 | -2.3% | -7.5% | 39.6%[activator] | 1.5% | -4.0%[46.1 µM] | · | · | ·
O=C(Nc1ccccc1C(=O)O)c1cccc(N2C(=O)c3ccccc3C2=O)c1 | 10.9% | -1.6%[46.1 µM] | 40.6%[activator] | 4.2% | 5.4%[46.1 µM] | 24.4% | · | ·
Cc1cccc2sc(NNC(=O)c3ccc4c(c3)OCCO4)nc12 | -11.2% | 16.0% | 11.1% | -12.2% | -2.5% | -25.9% | -15.1% | -4.4%
O=C(Nc1cccc(F)c1)C1CCN(c2nc3ccccc3[nH]2)CC1 | · | 7.6%[46.1 µM] | -11.0% | · | · | · | 9.6% | -0.4%
CCCC(C(=O)NC1CCCC1)N(Cc1ccc(F)cc1)C(=O)c1snc(C(N)=O)c1N (stereo not given) | -8.7% | ? | -5.2% | 7.2% | ? | -0.2% | · | ·
Cc1ccnc(NS(=O)(=O)c2ccc(NS(C)(=O)=O)cc2)n1 | 6.0% | · | -4.4% | -2.0% | · | ? | · | ·
NC(=O)/C(=C/c1ccc2c(c1)OCO2)NC(=O)c1ccco1 | 8.7% | -27.4%[46.1 µM] | 2.1% | -0.4% | 11.2%[46.1 µM] | 6.5% | · | ·
Cn1cc(CN2CCN(Cc3ccccc3)CC2)c(-c2cccc(Cl)c2)n1 | -19.9% | · | ? | -0.7% | · | -0.4% | · | ·
COc1ccc2nc(SCC(=O)Nc3c(C)cccc3C)[nH]c2c1 | 2.4% | -6.2% | -21.3% | 3.7% | -8.7% | 6.0% | -7.3% | -2.8%
COc1cccc(CNC(=O)c2cnc(-c3ccccn3)nc2C(F)(F)F)c1 | -5.0% | 10.7% | -26.8% | -5.8% | ? | 0.4% | 5.6% | 1.9%
NS(=O)(=O)c1ccc(NC(=O)C2CCCO2)cc1 (stereo not given) | 12.7% | -12.6% | · | 7.0% | 7.5% | 4.2% | 1.7% | 0.2%

High-throughput results deposited in PubChem BioAssay by National Center for Advancing Translational Sciences (NCATS).
